Arbovirus anti = antivirals against arbovirus infection, primary screen, cell-based, full library, 10K replicate subset. arbovirus infection cell-based antiviral screen. inhibition, % at 10 µM. 200,000 compounds, 0.37% hits;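 active means inhibition from about 30%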;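 further: bluetongue infection of BSR cells; cell survival read as ATP light after 72 h; 0% = infected wells without compound and 100% = uninfected wells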
RecA splice inh = Mtb RecA intein splicing inhibitors, primary screen, biochemical, fluorescence, HTS; inhibition, %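 (about 9 µM by stock and volumes)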; 290,000 compounds, 0.75% hits; cell-free RecA intein splicing; in the data active means inhibition above about 30%; inconclusive means no clear call, values can overlap the other calls;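 further: 0% = vehicle wells and 100% = reference inhibitor control wells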
Target sequence (P9WHJ3 whole entry, looked up, canonical isoform): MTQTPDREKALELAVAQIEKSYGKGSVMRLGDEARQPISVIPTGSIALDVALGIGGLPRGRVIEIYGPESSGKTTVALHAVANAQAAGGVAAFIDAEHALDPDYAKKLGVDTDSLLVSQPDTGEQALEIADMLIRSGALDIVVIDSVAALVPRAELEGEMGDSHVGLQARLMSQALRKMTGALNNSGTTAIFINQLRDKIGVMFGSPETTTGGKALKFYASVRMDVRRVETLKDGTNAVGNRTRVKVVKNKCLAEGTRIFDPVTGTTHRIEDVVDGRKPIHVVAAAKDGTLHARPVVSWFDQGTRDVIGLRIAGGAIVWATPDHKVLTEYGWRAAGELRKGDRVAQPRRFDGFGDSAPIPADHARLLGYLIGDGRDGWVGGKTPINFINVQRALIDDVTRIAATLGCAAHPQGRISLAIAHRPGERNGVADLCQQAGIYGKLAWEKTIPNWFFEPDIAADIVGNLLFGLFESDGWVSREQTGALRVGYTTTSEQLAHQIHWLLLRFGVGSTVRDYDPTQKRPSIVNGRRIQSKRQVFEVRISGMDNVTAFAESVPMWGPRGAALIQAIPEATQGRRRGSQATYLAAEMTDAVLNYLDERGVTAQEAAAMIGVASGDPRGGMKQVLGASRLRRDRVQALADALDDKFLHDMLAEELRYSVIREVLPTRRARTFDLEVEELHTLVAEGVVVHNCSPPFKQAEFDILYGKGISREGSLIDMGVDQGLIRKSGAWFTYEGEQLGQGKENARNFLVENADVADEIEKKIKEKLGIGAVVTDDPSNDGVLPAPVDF
YopH inh = YopH tyrosine phosphatase inhibitors, primary screen, biochemical, fluorescence Ex485/Em525; inhibition, %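 (about 10 µM by stock and volumes)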; 140,000 compounds, 0.16% hits; AID 898, 2007;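 active means inhibition of 50% or more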;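 further: controls were vehicle for no effect and minimum signal wells for full effect; inactives centre near -20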
Mtb bLac sens = beta-lactam sensitization of Mtb H37Rv, H37Rv. M. tuberculosis H37Rv growth with meropenem, percent inhibition; hits of this screen are not shown here. inhibition, % at 25 µM. 330,000 compounds, 0.27% hits. AID 434955, 2010;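 active means about 74% or more and at least 40 points above the plate without the antibiotic, then above 30% in a dose series; inconclusive means first-round hits that could not be retested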;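 further: growth measured after seven days incubation then overnight dye step; 0% = bacteria only wells and 100% = bacteria with antibiotic; twin plates without the antibiotic show which effects depend on it; some results filed as inactive read as strong as hits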
Mtb H37Rv = M. tuberculosis H37Rv growth inhibitors, H37Rv strain (AID 1626); M. tuberculosis H37Rv growth inhibition; higher % means a stronger effect; inhibition, % at 10 µM; hits with a dose series show IC50 in µM; 220,000 compounds, 0.95% hits;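 active means confirmed in a dose series; inconclusive means inhibition above 80% but not taken into the dose series; inactive means below 80% or under 30% at every dose of the series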;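 further: bacteria incubated seven days before Alamar blue readout; 0% = bacteria only wells and 100% = bacteria with antibiotic wells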
Arbovirus anti repeat = also measured in Arbovirus anti; calls as there; inhibition, %; measured here: 10K subset replicate screen; many hits read low in the repeat;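 first of two repeat runs on a subset; 0% = infected and 100% = uninfected wells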
Starred values were filed as active, the others as inactive; i = inactive; u = inconclusive; x = no result given. A portion of the library; rates above refer to the full screens.

SMILES	Arbovirus anti	RecA splice inh	YopH inh	Mtb bLac sens	Mtb H37Rv	others
O=C(c1ccc(S(=O)(=O)N2CCOCC2)cc1)N(Cc1ccco1)Cc1cccs1	12	1.2	-35	-11	-3%
COc1cccc(C2SCC(=O)N2c2ccc(Cl)cc2)c1OC (stereo not given)	-2	2.6	0	0	2%
O=C(NC1=NCCS1)c1cccc(S(=O)(=O)N2CCc3ccccc32)c1	-1	0.1	x	-3	-2%
COc1ccc(CN2CC[C@H]3C=CC[C@@H](C(=O)NCCc4ccccc4)[C@H]3C2=O)cc1OC	x	0.1	x	-7	-4%
c1ccc(Cc2nn3c(-c4ccncc4)nnc3s2)cc1	16	0.1	-14	-3	-5%
COc1ccc(Cc2nc(-c3cccnc3)no2)cc1OC	0	13	x	2	2%
CCCS(=O)(=O)n1nc(-c2ccc(C)cc2)cc1N	-1	-3.2	-28	2	-2%
O=C(c1cccc(F)c1)N1CCN(c2ccc([N+](=O)[O-])c(N3CCOCC3)c2)CC1	-3	-3.3	-15	2	1%
CC(=O)N1CCc2cc(Br)cc(S(=O)(=O)NCCCN3CCCC(C)C3)c21 (stereo not given)	-1	0.6	8	-4	-11%
O=C(COc1ccc(Cl)cc1Cl)Nc1ccc(C(=O)Nc2ccccc2C(=O)O)cc1	x	7.1	x	11	x
CCCC(=O)N1CCN(c2nnc(-c3ccccc3)c3ccccc23)CC1	x	26	x	-4	x
COCCCNC(=O)c1c(N)n(Cc2ccco2)c2nc3ccccc3nc12	x	i	x	42	-1%
Cc1ccccc1OCC(=O)NC1=NCCS1	0	-5.5	-37	4	-5%
CC(C)Nc1nc(-c2ccccc2)nc(-n2ccnc2)n1	-9	3.4	-51	12	9%
COc1ccc(CN2CCCC(C(=O)N3CCCC3)C2)c(OC)c1 (stereo not given)	x	1.4	x	-8	x
CCCCOC(=O)N/N=C/C=C/c1ccccc1	-2	0.9	-3	-5	6%
Cc1cc(C)n(-c2ccc([N+](=O)[O-])cc2-c2nn[nH]n2)n1	3	-1.1	x	9	9%
COc1ccc(CCN2C(=O)c3ccccc3NC2c2cc(Cl)c(O)c(OC)c2)cc1 (stereo not given)	x	11	x	14	x
O=S(=O)(c1ccc(F)cc1)N1CCN(c2ccc(-c3ccccc3)nn2)CC1	-3	0.4	x	-1	7%
CCOc1ccc(OCC(=O)Nc2ccc(S(N)(=O)=O)cc2)cc1	-6	-2.0	x	-1	-5%
CCC(=O)OC1(C#CCOc2ccc(OC)cc2)CCN(C)CC1	-3	0.6	-13	15	4%
NS(=O)(=O)c1cccc(NC(=O)CSc2nnc(C3CC3)n2Cc2ccccc2)c1	x	1.7	x	-5	0%
CCN(CC)CCn1c2ccc(Cl)cc2c2nc(C)sc21	-29	-1.7	-5	1	1%
O=C(Nc1nc2ccccc2[nH]1)c1ccc(Br)o1	-7	-2.2	x	85	u

For reference, 3 of the compounds above:
SMILES	Arbovirus anti	RecA splice inh	YopH inh	Mtb bLac sens	Mtb H37Rv	others
Cc1ccccc1OCC(=O)NC1=NCCS1	0	-5.5	-37	4	-5%
CC(C)Nc1nc(-c2ccccc2)nc(-n2ccnc2)n1	-9	3.4	-51	12	9%
COc1ccc(CN2CCCC(C(=O)N3CCCC3)C2)c(OC)c1 (stereo not given)	x	1.4	x	-8	x

The listing continues:
SMILES	Arbovirus anti	RecA splice inh	YopH inh	Mtb bLac sens	Mtb H37Rv	others
Cc1ccc(-n2nccc2-c2nn(-c3cccc(C(F)(F)F)c3)c(=O)n(C)c2=O)cc1	2	-2.7	x	6	-2%
CN(C1CCCCC1)S(=O)(=O)c1ccc(S(=O)(=O)N2CCN(CCC#N)CC2)cc1	9	-0.5	-26	3	0%	Arbovirus anti repeat=-9
CCOc1ccc(Nc2nc(N)c([N+](=O)[O-])c(N3CCN(C)CC3)n2)cc1	x	4.0	x	50	x
O=S(=O)(Cc1ccccc1)N1CCc2ccccc21	4	0.0	-3	2	-10%
CCC1(C)CC(CCNCc2ccc(N(C)C)cc2)(c2ccc(F)cc2)CCO1 (stereo not given)	x	3.8	x	-3	11%
CC(C)Oc1ccc(S(=O)(=O)N(C(C)C)C(C)C)cn1	-2	-1.8	-3	1	0%
CSCCC(NS(=O)(=O)c1ccc(Cl)cc1)C(=O)OCC(=O)c1c(C)[nH]c2ccccc12 (stereo not given)	-29	13	-38	5	-3%
Cc1ccc([N+](=O)[O-])cc1S(=O)(=O)Nc1ccc(N2CCOCC2)cc1	6	-1.1	x	-5	3%
COc1ccc(N2CCN(C(=O)CN3CCN(C(c4ccccc4)c4ccccc4)CC3)CC2)cc1	-12	5.1	2	62	78%
O=C(Cc1cccs1)N1CCN(c2ccc([N+](=O)[O-])cc2)CC1	-2	1.2	x	-1	-2%
Clc1ccc(/C=N/Nc2nc(Cl)nc3ccccc23)cc1	-1	-1.8	-38	-1	2%
FC(F)(F)c1ccncc1-c1nnnn1-c1ccc(Cl)cc1	x	2.8	x	-3	2%
COc1ccc(CCNC(=S)NC2CCN(Cc3ccccc3)CC2)cc1	8	11	x	3	0%
O=C(Nc1ccc(Cl)c(C(F)(F)F)c1)[C@@H]1CC=C[C@@H]2CCN(C3CCCCC3)C(=O)[C@@H]21	x	-0.8	x	17	6%
CSC1=NCCN1S(=O)(=O)c1ccc(NC(C)=O)cc1	11	2.1	x	-5	-6%
Cc1ccc(S(=O)(=O)N(C)C)cc1NC(=S)N1CCCCC1CO (stereo not given)	2	-2.1	x	5	2%
Cc1ccc(NC(=O)CC(=O)NCCN2CCOCC2)cc1	10	x	-37	-2	-7%
CCN(CC(=O)Nc1cccc(F)c1)Cc1nc2ccccc2c(=O)[nH]1	7	5.8	x	0	-4%
CCn1cc(CCC(=O)NC(C)c2ccccc2)c2ccccc21 (stereo not given)	x	0.6	x	3	x
Cc1ccc(C2=NCCn3c2c2ccc([N+](=O)[O-])cc2[n+]3[O-])cc1	x	0.9	x	100	x
Cc1c(NC(=O)c2cc3c(s2)-c2ccccc2OC3)cccc1[N+](=O)[O-]	2	0.3	-32	-3	1%
COc1ccc(F)cc1S(=O)(=O)Nc1cc2c3c(c1)CCC(=O)N3CCC2	x	-2.0	x	-2	x
Cc1cc(C)cc(C(=O)N[C@@H](C)C(=O)N2CCC3(CC2)NCCc2[nH]cnc23)c1	x	2.0	x	1	x
CC(=O)Nc1ccc(S(=O)(=O)N(C)CC(=O)OCC(=O)NNC(=O)c2ccccc2F)cc1	x	-1.4	x	-2	x
Cc1cc(C)cc(NC(=O)CSc2nc3ccccc3nc2N2CCCCC2)c1	x	0.8	x	3	x
COCCNC(=O)CCn1nc(-c2ccc(Cl)cc2)ccc1=O	5	-1.1	-9	1	-3%
Cc1cccc2[nH]c(CN(C)C(=O)C3CCC(=O)N(CCc4ccccc4)C3)nc12 (stereo not given)	x	1.3	x	u	x
Cc1ccccc1-c1nsc(SCC(=O)c2ccc(Cl)cc2)n1	4	12	-13	0	x
O=C(NCCS(=O)(=O)N1CCN(c2ccccc2F)CC1)c1cccc(Br)c1	x	-4.0	x	4	x
Cc1onc(-c2ccccc2)c1C(=O)N1CCOC12CCN(c1cccc(F)n1)CC2	10	3.4	x	2	1%
CCN1CCN(c2nc3ccccn3c(=O)c2C=O)CC1	x	-49	x	9	x
Cc1onc(-c2c(F)cccc2Cl)c1C(=O)Nc1sc2c(c1C(N)=O)CCC2	-17	-0.6	-18	u	0%
C=CCn1c(CNC(=O)c2cccs2)nnc1SCC(=O)Nc1ccc(C(=O)O)cc1	9	0.4	-5	8	-2%
CCN(CC(=O)Nc1ccccc1C(F)(F)F)C(=O)c1ccc(=O)n(Cc2ccccc2)n1	x	-1.8	x	-5	x
CCOC(=O)C1=C(c2ccccc2)N=C2SCC(=O)N2C1c1ccc(OC)c(OC)c1 (stereo not given)	5	-0.8	-45	-23	-12%
O=C(c1ccccc1F)N1CCN(S(=O)(=O)c2ccc(Br)cc2)CC1	x	-0.8	x	2	x
Cc1cc(C)nc(NC(=O)CSc2nc3ccccc3s2)n1	-2	1.5	-9	64	-3%
Cc1ccc(C(=O)N2CCSC2=S)cc1	4	1.5	x	0	-2%
CC(C)NC(=O)NC(=O)COC(=O)c1ccc(S(=O)(=O)Nc2ccccc2)cc1	1	-0.6	x	-7	2%
O=C(O)c1cn(-c2ccccc2)nc1C(=O)O	-2	-0.5	-34	3	-9%
O=c1c2[nH]c3ccccc3c2ncn1C1CCCCC1	-5	0.7	-27	-16	-7%
CC1CCN(S(=O)(=O)c2ccc(C(=O)Nc3nnc(C4CC4)o3)cc2)CC1	x	-2.4	x	87	x
CC(=O)C1=C(O)C(=O)N(Cc2ccccc2)C1c1cccs1 (stereo not given)	0	1.2	-49	-2	-6%
Cc1cccc(C)c1NC(=O)N1CCC(N2CCCCC2)CC1	4	1.3	-9	-1	0%
O=C(N/N=C/c1cccs1)c1c[nH]c2ccccc12	0	-0.3	-9	2	-5%
COc1ccc(Cl)cc1NC(=O)Cn1c(NCCO)nc2ccccc21	6	11	x	10	-4%
O=C(NNC(=S)Nc1ccc(Cl)c(Cl)c1)c1ccccn1	-19	-15	x	7	-1%
Oc1cc2c(cc1O)[C@@H](c1ccccc1)CNCC2	7	x	-11	x	-7%
CNC(=O)CO/N=C/c1ccc(N(C)C)cc1	15	-0.2	x	5	5%
O=C(N/N=C/c1ccc[nH]1)c1ccncc1	-5	-0.5	x	97	u
CCOc1ccc(OCC)c(NC(=O)CSc2nc3c(c(=O)n(C)c(=O)n3C)n2CC)c1	2	-0.6	-31	-1	-2%
COc1ccc(C(=O)NNC(=O)CSc2nc3c(c(=O)n(C)c(=O)n3C)n2C)cc1	4	-0.6	x	61	2%
COc1ccc(NC(=O)Cn2c(=O)oc3cc(Cl)ccc32)c(OC)c1	x	-1.5	x	1	x
Cc1ccc2nc(Nc3ccc(F)cc3)c3nncn3c2c1	x	5.3	x	6	x
N#CCCC1CCCC=C1N(Cc1ccccc1)C(=O)C(Cl)Cl (stereo not given)	x	1.7	x	-5	13%
Cc1ccc(OC(=O)CCC(=O)OCCCC(F)(F)C(F)(F)F)cc1	18	0.3	-23	2	2%
O=C1NC2(CCCCC2)NN1c1ccccc1	-39	2.9	-17	96	u
O=C(NNS(=O)(=O)c1ccc([N+](=O)[O-])cc1)c1ccc2ccccc2c1O	x	-2.6	x	2	x
O=C1[C@@H]2[C@H](C(=O)N1O)[C@H]1C=C[C@@H]2C1	4	-5.9	-68	-10	-2%
O=C(Nc1ccc(N2CCCC2)c(Cl)c1)c1ccc([N+](=O)[O-])cc1	4	-1.2	-18	12	7%
The listing continues.
SMILES	Arbovirus anti	RecA splice inh	YopH inh	Mtb bLac sens	Mtb H37Rv	others
CCc1ccc(NC(=O)CSCCN2C(=O)c3ccccc3C2=O)cc1	10	-0.8	-40	86	89%
Cc1ccc2c(c1)N(CCC(=O)NCC1CCCO1)C(=O)CO2 (stereo not given)	1	0.6	-41	-6	-7%
c1ccc2c(c1)CN1CCCC1=N2	x	-5.2	x	-5	x
COc1ccc(CCNC(=O)CCS(=O)(=O)c2cccc3nsnc23)cc1OC	8	0.9	-25	-5	-2%	Arbovirus anti repeat=7
Cc1ccc(S(=O)(=O)N2CCCCCC2)cc1[N+](=O)[O-]	-1	-1.2	-15	0	6%
COc1ccc(OC)c(NC(=O)CSc2nc3ccccc3cc2Cc2ccccc2)c1	-3	3.6	-34	10	3%
O=C(O)Cc1ccc(NC(=O)Cc2ccc3ccccc3c2)cc1	x	-0.4	x	-6	x
COCCOc1ccc(C(F)(F)F)cc1NC(=O)COC(=O)C12CC3CC(CC(O)(C3)C1)C2	x	-0.2	x	-11	x
O=C(NS(=O)(=O)Oc1cccc(Cl)c1Cl)OC[C@@H]1CCCN2CCCCC12 (stereo not given in full)	1	x	-23	-7	8%
COc1ccc(N2CCN(c3nc4c(c(=O)[nH]c(=O)n4C)n3Cc3cccc(C)c3)CC2)cc1	-12	2.3	-7	2	24%

Among those listed so far, four contain bromine.
SMILES	Arbovirus anti	RecA splice inh	YopH inh	Mtb bLac sens	Mtb H37Rv	others
CC(=O)N1CCc2cc(Br)cc(S(=O)(=O)NCCCN3CCCC(C)C3)c21 (stereo not given)	-1	0.6	8	-4	-11%
O=C(Nc1nc2ccccc2[nH]1)c1ccc(Br)o1	-7	-2.2	x	85	u
O=C(NCCS(=O)(=O)N1CCN(c2ccccc2F)CC1)c1cccc(Br)c1	x	-4.0	x	4	x
O=C(c1ccccc1F)N1CCN(S(=O)(=O)c2ccc(Br)cc2)CC1	x	-0.8	x	2	x

Assay outcomes (PubChem BioAssay)
